# VDR inhibitor = inhibitors of human vitamin D receptor; VDR-SRC2-3 peptide fluorescence polarization, 2 h; Potency, µM, for the others: max response, negative = inhibition, most hits filed as inhibitors; actives 0.93% (n = 400,000); active = well fitted inhibition curve with a large enough effect; inconclusive = small, poorly fitted or top-dose-only effect, or another doubt; inactive = no such curve, though single readings can be large or run the other way; also: series mostly up to about 120 µM
# Target sequence (P11473 whole entry, looked up): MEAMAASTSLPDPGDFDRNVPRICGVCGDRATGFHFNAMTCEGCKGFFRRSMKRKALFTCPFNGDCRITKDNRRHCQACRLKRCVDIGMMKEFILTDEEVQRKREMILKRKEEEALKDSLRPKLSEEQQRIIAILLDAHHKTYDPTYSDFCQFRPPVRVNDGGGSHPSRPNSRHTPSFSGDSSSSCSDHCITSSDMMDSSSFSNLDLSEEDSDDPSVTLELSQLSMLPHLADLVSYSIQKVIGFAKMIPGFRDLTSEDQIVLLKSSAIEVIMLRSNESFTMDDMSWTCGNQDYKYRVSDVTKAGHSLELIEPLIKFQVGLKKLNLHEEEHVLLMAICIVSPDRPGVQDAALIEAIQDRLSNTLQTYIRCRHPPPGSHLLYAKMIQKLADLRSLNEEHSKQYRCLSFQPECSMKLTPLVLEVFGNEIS
#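 FP read-out; VDR + SRC2-3 coactivator peptide; 23 nl compound by pintool; 2 h RT incubation; reagents held at 4 deg C, protected from light.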
# Starred values were filed as active, the others as inactive; ? = inconclusive; [ ] = another dose, or the depositor's remark. % is scaled to controls: 0 for no effect and ±100 for the full control effect; potency is read from the fitted curve at half-maximal effect. A portion of the library; the hit share may differ from the screen's.
VDR inhibitor	mol
-10%	O=C(OC1CCCCC1=O)c1cccc(S(=O)(=O)N2CCCCC2)c1 (stereo not drawn)
-1%	NC(=O)CN(Cc1ccccc1)S(=O)(=O)c1ccc2c(c1)OCCO2
5%	COc1ccc(C2C(C(C)=O)=C(C)N=c3s/c(=C\c4cc(C)n(C)c4C)c(=O)n32)c(OC)c1 (stereo not drawn)
6%	O=C(Nc1nccs1)c1ccc(Br)s1
4%	Cc1cccc(OCCCC(=O)Nc2ccc(N3CCCCC3)cc2)c1C
-9%	COc1ccc(CNC(=O)c2ccc3c(O)c(S(=O)(=O)c4ccccc4)c(=O)[nH]c3c2)cc1
11%	N#Cc1c(SCC(=O)Nc2ccccc2)nsc1SCC(=O)Nc1ccccc1
0%	Cc1cc(F)ccc1S(=O)(=O)NCC(c1ccco1)S(=O)(=O)c1cccs1 (stereo not drawn)
-2%	O=C1c2cc(Br)ccc2O[C@@H](c2ccc3c(c2)OCO3)[C@@H]1O
6%	Cc1ccc(C)c(Cn2c(SCC(=O)NCc3ccccc3)nc3ccccc32)c1
-3%	CSc1ncccc1C(=O)N(C)CC(=O)Nc1ccc(Cl)c(C(F)(F)F)c1
-12%	COc1ccc(-c2cc(C3CCNCC3)[nH]n2)cc1
9%	O=C(O)c1cc2c(ccc3ccccc32)[nH]1
-2%	COc1cccc2cc(C(=O)N3CC(C)OC(C)C3)c(=O)oc12 (stereo not drawn)
-7%	CN(CCc1ccccc1)C(=O)c1ccc(NC(=O)Cc2cccc([N+](=O)[O-])c2)cc1
?	Cc1ccc(C)c(NC(=O)c2ccccc2O)c1
-13%	Cc1cccc(Oc2ccc(NC(=O)c3ccccc3C(=O)O)cc2)c1
-6%	O=C(Nc1nnc2n1CCS2)c1ccc(Br)o1
6%	CCC(NC(=O)C1CCCC1)c1ccc(C)cc1 (stereo not drawn)
-22%	CCOC(=O)c1c(NC(=O)c2ccc(Cl)s2)sc(C)c1C
-13%	Cc1ccc(S(=O)(=O)N(C)C)cc1NC(=O)CCc1c[nH]c2ccccc12
13%	COc1ccc(CNC(=O)Cn2nc3c(cc2=O)CCCC3)cc1
-25%	Cc1cc(C)n(-c2ccc(C(=O)NCC(=O)Nc3cc(Cl)ccc3Cl)cc2)n1
-3%	C=NC(C(=O)NC1C(=O)N2C1SC(C)(C)C2C(=O)O)c1ccccc1 (stereo not drawn)
4%	COc1ccc(Br)cc1CNC(=O)Cn1c(=O)c2cccn2c2ccc(F)cc21

# (continued)
VDR inhibitor	mol
6%	C=CCOC(=O)N1CCC2CC1c1cc(-c3ccc(OC)cc3)ccc12 (stereo not drawn)
15%	C[C@@](N)(C(=O)O)c1ccc(P(=O)(O)O)cc1
-3%	COc1ccc(NC(=O)CCN2CCCC2)c(OC)c1
3%	O=C(Nc1ccc(Cl)cc1)N1N=CCC1c1ccccc1 (stereo not drawn)
3%	CC(=O)OCC(=O)C1(O)CCC2C3CC(F)C4=CC(=O)CCC4(C)C3C(O)CC21C (stereo not drawn)
-8%	CCN1CCN(c2nc(C)c3c(n2)CC(C)CC3=O)CC1 (stereo not drawn)
-13%	CCN(CC(=O)Nc1ccccc1C(F)(F)F)C(=O)c1ccccc1Sc1ccccc1C#N
2%	CN(C)CCNC(NC(=O)c1cccs1)C(Cl)(Cl)Cl (stereo not drawn)
-4%	CCc1ccc(C(=O)c2cn(CC(=O)Nc3cc(C)ccc3C)c3nc(C)ccc3c2=O)cc1
-7%	Cn1nc(-c2ccccc2F)c2cc(C(=O)N3CCN(c4ccccc4F)CC3)sc21
-10%	CC1Cc2ccccc2N1CC(=O)Nc1ccc(S(=O)(=O)N(C)C)cc1 (stereo not drawn)
-29%	O=C(O)c1cc(-c2ccc(Cl)s2)nc2ccccc12
-25%	Cc1cc(C)nc(OC(C(=O)O)C(OCCC(C)C)(c2ccccc2)c2ccccc2)n1 (stereo not drawn)
24%	O=C(NCCOc1ccccc1Cl)C(=O)Nc1ccccc1
0%	Cc1ccc(S(=O)(=O)C2(C(=O)N3CCN(c4cc(C)ccc4C)CC3)CC2)cc1
2%	C=CCC(=O)N1CCCC(CNC(=O)c2ccc(-c3ccccc3)cc2)C1 (stereo not drawn)
6%	COc1ccccc1CNC(=O)CCc1nc2ccccc2c(=O)[nH]1
-19%	CN1CCN(S(=O)(=O)c2cccc(C(=O)NCCOc3ccccc3F)c2)CC1
-6%	CC1CCN(S(=O)(=O)c2ccc(C(=O)N3CCOCC3)cc2)CC1
1%	CSCC(C)N1CCC(Oc2cccc(C(=O)NCc3ccccn3)c2)CC1 (stereo not drawn)
19%	CCOC(=O)C1CCN(Cc2ccc(F)c(F)c2)CC1
10%	CC(Sc1nnnn1-c1cccc(F)c1)C(=O)NC1CCCC1 (stereo not drawn)
14%	COc1ccc([C@H]2CC(=O)C=C(c3ccc(C(F)(F)F)c(C(F)(F)F)c3)C2)cc1OC
-21%	CCn1c(CCNC(=O)c2ccco2)nc2ccccc21
-7%	COc1ccc(C(=O)NCc2nnc(SCC(=O)Nc3ccccc3OC)o2)cc1

# Five entries from above, ordered by the value under VDR inhibitor, smallest number first:
canonical_smiles | VDR inhibitor
Cn1nc(-c2ccccc2F)c2cc(C(=O)N3CCN(c4ccccc4F)CC3)sc21 | -7%
Cc1ccc(S(=O)(=O)C2(C(=O)N3CCN(c4cc(C)ccc4C)CC3)CC2)cc1 | 0%
COc1ccccc1CNC(=O)CCc1nc2ccccc2c(=O)[nH]1 | 6%
C[C@@](N)(C(=O)O)c1ccc(P(=O)(O)O)cc1 | 15%
CCOC(=O)C1CCN(Cc2ccc(F)c(F)c2)CC1 | 19%

# (list continues)
VDR inhibitor	mol
3%	CC(=O)N1c2ccc(S(=O)(=O)N3CCCCCC3)cc2CC1C(=O)NCc1ccccc1F (stereo not drawn)
31%[activator]	CCN=c1sc2ccccc2n1CC(O)COc1ccccc1 (stereo not drawn)
?	CCCCCN1C(C(=O)c2ccccc2)=C(NC(=O)c2ccc(OC)c(OC)c2)c2ccccc2S1(=O)=O
4%	Cc1ccc(NC(=S)N2CCC(N(C)CC3CCCO3)CC2)c(C)c1 (stereo not drawn)
-12%	Cc1cc(=O)n2[nH]c(SCc3c(F)cccc3Cl)nc2n1
9%	CCCOc1ccc(C(CC(=O)O)NC(=O)Cc2ccccc2)cc1 (stereo not drawn)
-3%	O=[N+]([O-])c1ccc(NC(=S)N/C(=N/CS(=O)(=O)c2ccccc2)c2ccccc2)cc1
-22%	Cc1cccc(-c2nc(S(=O)(=O)c3ccc(Cl)cc3)c(N3CCCCCC3)o2)c1
-6%	O=C1CSC(=Nc2cc(Cl)ccc2Cl)N1
4%	Cc1cc(=O)oc2cc(OCC(=O)NCCCN3CCOCC3)c(Cl)cc12
1%	Cc1cccc(N2CC(C(=O)Nc3nnc(SCC(=O)Nc4cc(C)on4)s3)CC2=O)c1 (stereo not drawn)
1%	CCN(CC)CCNC(=O)C(=O)NCC1OCCN1S(=O)(=O)c1ccc(Cl)cc1 (stereo not drawn)
-10%	COc1ccccc1OCC(=O)Nc1nonc1NC(=O)COc1ccccc1OC
-23%	Cc1cc(C)c2c(n1)SCC(=O)N2CC(=O)NCCC1=CCCCC1
-8%	O=C(COc1ccc(S(=O)(=O)N2CCOCC2)cc1)N1CCc2ccccc2C1
-1%	O=C(NCCCN1CCOCC1)c1cc(-c2ccc(Cl)cc2)on1
-12%	CC(=O)N(/N=C/c1ccc([N+](=O)[O-])o1)c1nc2ccccc2c(=O)n1-c1ccccc1
14%	CCSc1nnc(-c2cc3c(s2)-c2ccccc2CC3)o1
-8%	C/C(CC(=O)Nc1ccc2c(c1)OCO2)=N\NC(=O)c1ccc(N)cc1
-7%	COC(=O)Cn1c(CN(C)Cc2ccccc2)nc2c1c(=O)n(C)c(=O)n2C
14%	COc1ccc(NC(=O)N2CC[C@@]3(CCCN(S(C)(=O)=O)C3)C2)cc1
-4%	COc1ccccc1OCCn1c(CO)nc2ccccc21
?	CCc1ccc(/C=C2/SC(=S)NC2=O)cc1
6%	O=C(Cc1ccc(F)cc1)NCc1ccc2c(c1)CCN2C(=O)c1ccc(F)cc1
7%	O=C(Nc1cc(N2CCOCC2)ncn1)Nc1cccc2ccccc12

# Three entries picked at random from those above, as already listed:
VDR inhibitor	mol
?	CCc1ccc(/C=C2/SC(=S)NC2=O)cc1
6%	O=C(Cc1ccc(F)cc1)NCc1ccc2c(c1)CCN2C(=O)c1ccc(F)cc1
3%	CC(=O)N1c2ccc(S(=O)(=O)N3CCCCCC3)cc2CC1C(=O)NCc1ccccc1F (stereo not drawn)

# Following part:
VDR inhibitor	mol
8%	CC(C)(C)C(=O)/C=C(N)/C=C/c1ccccc1
?	COCCn1c(NC(=S)NC(=O)C2CC2)cc(=O)[nH]c1=O
6%	COc1ccc(C2C(=O)N(C3CCCCCC3)CC(=O)N2Cc2ccccc2)cc1 (stereo not drawn)
10%	CSCC(C)N1CCC(n2nccc2NC(=O)c2ccc3c(c2)OCO3)CC1 (stereo not drawn)
-18%	CN1CCN(C(=O)CN(c2ccccc2)S(=O)(=O)N(C)C)CC1
5%	CCN(CC)c1ccc(NC(=O)CCN2C(=O)c3ccccc3S2(=O)=O)c(C)c1
-9%	O=C(COC(=O)CNC(=O)c1ccc(Cl)cc1)Nc1cccc(S(=O)(=O)N2CCCC2)c1
0%	CC(=O)c1sc(NC(=O)c2ccc(C)c(C)c2)nc1C
6%	CN1CCN(CC(=O)NC(=O)NC2CCCCC2)CC1
8%	Brc1ccc(CSc2nnc(-c3ccco3)o2)cc1
6%	Cc1ccc(S(=O)(=O)Nc2nncs2)cc1
2%	O=C(NCC1(c2ccccc2)CCCC1)c1cccc(Br)c1
8%	O=C(NCCCn1ccnc1)c1cc2ccccc2o1
-15%	CCOC(=O)C(C)n1nc(/C=C/c2ccc(OC)cc2)ccc1=O (stereo not drawn)
4%	COC(=O)c1cc(NC(=O)c2c(Cl)nc3sccn23)cc(C(=O)OC)c1
20%	COc1ccc(C(=O)NCc2cnn(C)c2)cc1OC1CCN(C(C)C)CC1
-10%	CCOC(=O)C1CCN(C(=O)c2ccc3c(Cl)c4c(nc3c2)CCCC4)CC1
6%	COc1ccc(OC)c(NC(=O)N2CCC(N3CCN(Cc4ccc(F)cc4)C(=O)C3=O)CC2)c1
-6%	NC(=O)CC(NC(=O)Cc1ccc(Cl)cc1)c1ccc(NC2CCCCCCC2)c([N+](=O)[O-])c1 (stereo not drawn)
-1%	COc1ccc(NC(C)=O)cc1S(=O)(=O)N1CCN(C(=O)c2ccccc2F)CC1
-7%	N=c1sccn1CC(=O)Nc1ccccc1-c1ccccc1
?	O=C(O)c1ccccc1-c1ccc(/C=c2\sc3nc4cc(Br)cnc4n3c2=O)o1
11%	Cc1cn2c(=O)cc(COC(=O)c3ccc(NC(=O)COc4ccccc4C)cc3)nc2s1
-6%	CCS(=O)(=O)N1Cc2ccccc2CC1C(=O)Nc1ccc(F)c(F)c1F (stereo not drawn)
?	COCCCNC(=S)NNC(=S)Nc1ccccc1

# Entries above containing a CF3 group:
VDR inhibitor	mol
-3%	CSc1ncccc1C(=O)N(C)CC(=O)Nc1ccc(Cl)c(C(F)(F)F)c1
-13%	CCN(CC(=O)Nc1ccccc1C(F)(F)F)C(=O)c1ccccc1Sc1ccccc1C#N
14%	COc1ccc([C@H]2CC(=O)C=C(c3ccc(C(F)(F)F)c(C(F)(F)F)c3)C2)cc1OC

# Next part.
VDR inhibitor	mol
-21%	CC(C)(C)C(=O)Nc1ccc(S(=O)(=O)N2CCC(c3nc4ccccc4[nH]3)CC2)cc1
-7%	Clc1ccc(CNc2ccccc2NCc2ccc(Cl)nc2)cn1
8%	CCC1CCCCN1C(=O)Nc1ccc(F)cc1 (stereo not drawn)
6%	CCOC(=O)N1CCC(NC(=O)c2cc(COc3ccccc3SC)on2)CC1
19%	Cc1ccc(-n2c(=O)c3c(c4cc(C)ccc4n3C)n(CC(=O)Nc3cc(C)cc(C)c3)c2=O)cc1
1%	COc1ccc(NC(=S)N2CCC(C(=O)c3ccc(F)cc3)CC2)cc1
8%	COc1ccc(OC)c(NC(=O)c2cc(C3CC3)nc3c2c(C)nn3-c2ccc(C)cc2)c1
24%	O=c1[nH]c2ccccc2n1CCCSc1cnc2ccccc2n1
-13%	O=C(COC(=O)c1ccccc1Br)Nc1nnc(-c2ccccc2)o1
0%	Cc1ccc(S(=O)(=O)NCC(=O)OCC(=O)N2CCc3ccccc32)cc1
1%	CCCn1nc(C(=O)Nc2ccc3nc(N4CCOCC4)sc3c2)ccc1=O
-13%	CC1(C)CC(=O)C2=C(C1)N(CCN1CCOCC1)C1=C(C(=O)CC(C)(C)C1)C2c1cccc(Cl)c1
8%	COCC(=O)NCCc1nc(-c2ccccc2)cs1
3%	CCOC(=O)CSc1nnc(CNC(=O)Cc2ccccc2)n1-c1ccccc1OC
7%	O=C(O)C(=O)/C(=C\c1ccc([N+](=O)[O-])cc1)c1ccc2ccccc2n1
12%	CCOC(=O)Cc1csc(NC(=O)c2ccoc2C)n1
16%	O=C(Nc1cccc(S(=O)(=O)N2CCCCC2)c1)c1cc([N+](=O)[O-])ccc1N1CCOCC1
-4%	CCn1nc(C)cc1C(=O)NC1CCCc2c1cnn2-c1cc(F)cc(F)c1 (stereo not drawn)
-16%	O=C1NN(c2cccc(Br)c2)C(=O)/C1=C/c1ccc(-c2cc([N+](=O)[O-])ccc2O)o1
-6%	CCOC(=O)c1c(-c2ccc(C)cc2)csc1NC(=O)c1cc(-c2ccc(OC)cc2)on1
-3%	CC(C)(C)c1ccc(-c2nnc(SCCN3C(=O)c4ccccc4C3=O)o2)cc1
11%	COc1ccc(C2=NCCNC(C(F)(F)F)=C2)cc1
-8%	CCN(C[C@H]1N[C@@](CC)(C(=O)OC)[C@H]2C(=O)N(C)C(=O)[C@@H]12)C(C)=O
0%	CCOC(=O)Nc1ccc2c(c1)nc(CN1CCOCC1)n2C
3%	CC/C(=N\NC(=O)c1nnn(-c2nonc2N)c1CN(C)c1ccccc1)c1ccccc1
?	CN(CC(=O)Nc1ccc(F)cc1)C(=O)COC(=O)/C=C/c1cccs1
-20%	O=c1[nH]c2ccccc2c2ccc(Cl)cc12

# Screens: PubChem BioAssay, National Center for Advancing Translational Sciences (NCATS)
